# Compound activity (PubChem BioAssay)
# Mtb hypoxia inh: PubChem AID 1159583; M. tuberculosis hypoxia-regulated fluorescent reporter, fluorescence; fluorescence inhibition, % (test concentration not listed); 300,000 compounds, 0.1% hits;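 active = 35 to 45% if threefold the growth effect, above 45% if 1.5-fold the growth effect; inactive = the rest, general growth blockers included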;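 note: wells of about 50 µL received 100 nL stock; 0% = vehicle wells and 100% = reference inhibitor wells; whole bacteria with a GFP reporter of the hypoxia response; strong numbers were not always called active; many hits fall short of the cut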
# PrP 5UTR inh: inhibition of PrP 5' UTR reporter expression | 340,000 compounds, 0.35% hits | cell-based PrP 5' UTR mRNA reporter, plate reader | inhibition, % (no concentration beside the values);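 active = every replicate at 50% or more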;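 note: 0 = median of the neutral control wells; tested in H4 reporter cells; numbers are from one replicate; inactives centre near -14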
# Autofluor counter: flagged as autofluorescent in microsphere protease counterscreen; fluorescence intensity (no concentration beside the values); 360,000 compounds, 3.1% hits; compound autofluorescence counterscreen, microsphere flow cytometry; stronger effect = higher value;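 active = at least 3 SD above the mean of all compounds, about 16000 in these data; inconclusive = too few beads counted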;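 note: 100 nL of 1 mM stock went into each well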
# RN4220 kill: growth inhibition of S. aureus RN4220, primary screen, OD600. 16 h. inhibition, % (concentration not given with the values). 330,000 compounds, 0.33% hits;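 active = z-score of -3 or lower and OD600 up to 0.18 on both plates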;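 note: plate controls were untreated cells for no effect and reference antibiotic for full effect; stock transfer was 100 nL into about 80 µL; one replicate is shown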
# Sa ugtP lethal: growth inhibition of ugtP-null S. aureus, primary screen, RN4220 ugtP deletion, OD600 | 16 h; some inactives read as strong as hits | growth inhibition, % (test concentration not listed) | 330,000 compounds, 0.54% hits | AID 1259309, 2017;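 active = z-score under -3 and OD600 up to 0.15 on both plates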;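 note: plate controls were untreated wells for no effect and antibiotic for full effect; wells of about 80 µL received 100 nL stock; the first replicate is given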
# BJeLR lethal: MLPCN primary cell-based screen for lethality selective to Ras in HRASV12 cells. 300,000 compounds, 0.17% hits. AID 1554, 2009. BJeLR (HRASV12) viability, CellTiter-Glo ATP luminescence, 48 h; reference of the scale not given here. inhibition, % (no concentration beside the values);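 active = replicate mean above 50%; inconclusive = above 50% but judged a plate artefact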;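 note: 50 nL library stock added to about 25 µL; numbers are from one replicate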
# Mtb hypoxia inh growth: second read-out of Mtb hypoxia inh, no call of its own (marks repeat the call); growth inhibition, %; measured here: M. tuberculosis growth (absorbance);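 0% = vehicle and 100% = reference antibiotic; read after six days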
# * = called active by the depositor; u = inconclusive; x = no result given.
Molecule	Mtb hypoxia inh	Mtb hypoxia inh growth	PrP 5UTR inh	Autofluor counter	RN4220 kill	Sa ugtP lethal	BJeLR lethal
COc1cccc(Oc2cnc(N)nc2-c2ccc(OC)cc2O)c1	4.3	14.8	2.3	4564	-2.2	-8.2	37.7
COCCN(CC(=O)NC1CCCCC1)C(=O)/C=C/C(=O)c1ccc(OC)cc1O	6.6	4.6	-21.5	4297	10.9	4.1	47.7
CC(C)CCOc1ccc(C(CC(N)=O)C(=O)O)cc1 (stereo unspecified)	7.2	4.0	-13.8	3171	3.4	-4.4	8.8
CCOCCc1c(O)nc(SCC)[nH]c1=O	18.7	3.1	-9.5	4856	1.9	4.1	11.8
CCc1cccc2c(C(=O)COC(=O)[C@@H]3CC(O)CN3S(=O)(=O)c3ccccc3[N+](=O)[O-])c[nH]c12 (stereo partly specified)	-6.6	2.9	-0.8	3901	4.5	1.6	x
C/C(=N/NC(=O)CNC(=O)C1COc2ccccc2O1)c1ccc([N+](=O)[O-])cc1 (stereo unspecified)	x	x	-10.9	5944	x	x	0.1
CCOc1ccc(CNC(=O)C2CCN(c3nn4c(=O)cc(C)nc4s3)CC2)cc1	-2.6	7.6	-11.3	5212	-2.6	7.2	1.5
CC(C)C(CCNC(=O)CC(Cc1ccccc1)c1ccco1)c1ccco1 (stereo unspecified)	8.2	12.5	-14.8	17138*	-2.9	11.8	-2.7
COc1ccc(NC(=O)CNC(=O)N2CC(=O)Nc3ccccc32)cc1OC	-10.5	-1.8	0.5	5360	3.5	0.2	6.0
O=C(CCN1CCN(c2ccccc2)CC1)NNC(=S)Nc1ccccc1Cl	13.4	3.7	-35.6	4256	9.6	3.8	-6.3
COc1ccc(Cc2nnc(NC(=O)Nc3ccccc3F)s2)cc1	-13.1	-2.0	-48.9	3163	6.9	-2.0	-1.3
CC#CP(=O)(OC)C(O)(CF)c1ccccc1 (stereo unspecified)	12.0	1.8	-12.6	2494	22.6	1.6	3.3
Cc1c(C#N)c2ncn(CCCN(C)C)c(=O)c2n1-c1ccccc1	5.2	8.9	-12.1	3366	-9.0	1.6	-2.4
CCOC(=O)c1[nH]c(C)c(/C(O)=C2\C(=O)C(=O)N(CCN3CCOCC3)C2c2cccs2)c1C (stereo unspecified)	-0.4	4.2	-15.1	u	0.2	1.5	-1.2
CC1CCN(C(=O)CNC(=O)CNC(=O)Cc2ccccc2)CC1	1.2	0.5	-5.7	4954	1.0	1.7	-20.4
CC12CCC(C(=O)NNC(=O)c3ccc(Br)cc3)(OC1=O)C2(C)C (stereo unspecified)	4.7	1.0	-29.0	5317	0.0	0.8	8.0
CC[C@]12c3[nH]c4cc(-c5ccco5)ccc4c3CCN1C(=O)[C@@H](CC(=O)NCc1cccc(C(F)(F)F)c1)C[C@@H]2C(=O)N1CCN(C(=O)C2CC2)CC1	-8.8	11.2	-14.3	4078	-6.1	-10.6	x
Cc1nnc(SCc2cccs2)[nH]c1=O	x	x	-18.9	4500	-0.2	0.0	-5.8
CN(CC(=O)Nc1ccc(F)c(F)c1F)C(=O)C1CC(=O)N(C2CCCC2)C1 (stereo unspecified)	-10.3	-3.0	-9.4	u	3.3	0.4	x
CCN1CC2(COC(=O)c3ccccc3N)CCC(OC)C34C5CC6C(OC)CC(O)(C5C6OC)C(O)(C(OC)C23)C14 (stereo unspecified)	-67.0	-15.1	-13.1	4751	6.1	2.1	x
COc1ccc(CCn2c(NN=C(C)C)nc3c2c(=O)[nH]c(=O)n3C)cc1	x	x	-13.4	2874	x	x	3.8
CCN1C(=O)c2cccc3c(S(=O)(=O)Nc4ncccc4C)ccc1c23	-1.3	-2.0	-20.2	5783	3.2	-10.3	-4.1
CC1(C)N=C(c2ccccc2)C(c2ccccc2)=N1	17.4	-2.6	-25.1	3774	-0.3	3.9	x
COc1ccc(C2CC(=O)C=C(c3ccc4c(c3)sc3ccccc34)C2)cc1 (stereo unspecified)	12.7	7.2	x	x	-1.7	0.2	x
COc1ccc(NC(=S)Nc2ccccc2OC)c(OC)c1	-5.2	-15.8	-31.0	4364	-6.1	-3.6	-5.8
Cc1cccc(OCc2nc(-c3ccc(-n4cccc4)cc3)no2)c1	-5.9	-1.4	-21.0	5907	1.0	-22.6	1.1
O=[N+]([O-])c1cc2c(cc1/C=N/Nc1nc(N3CCCC3)nc(N3CCCC3)n1)OCO2	x	x	-8.1	2516	x	x	-4.6
CCN(CC)S(=O)(=O)c1ccc(N2CCOCC2)c(NC(=O)c2cnccn2)c1	3.6	1.6	-16.8	6717	22.0	-10.2	2.0
Cc1coc2cc3oc(=O)c(Cc4ccccc4)c(C)c3cc12	7.3	1.0	-24.0	2532	4.2	-0.2	16.2
ClCC1CN(Cc2ccccc2Cl)CCO1 (stereo unspecified)	-2.1	2.4	5.5	4542	2.7	6.2	8.9

# (continued)
Molecule	Mtb hypoxia inh	Mtb hypoxia inh growth	PrP 5UTR inh	Autofluor counter	RN4220 kill	Sa ugtP lethal	BJeLR lethal
COc1ccc(-c2cc(-c3ccco3)[nH]c(=O)c2C#N)cc1OC	-1.2	1.2	3.7	u	7.9	4.3	-3.1
Cc1ccc(NC(=O)c2cccc3cccnc23)cc1	2.3	8.1	-70.6	6054	2.1	0.8	0.7
NC(=S)N/N=C/c1ccc(OC(=O)c2cccnc2)cc1	x	x	-2.3	5605	x	x	-8.5
CCCCN(C(=O)CCC(=O)Nc1cc(C)on1)C(C(=O)NC1CCCC1)c1ccccc1C (stereo unspecified)	1.4	7.6	-5.3	3950	-0.5	11.9	-9.7
CCOC(=O)CNS(=O)(=O)c1ccc(S(=O)(=O)NC2CC2)cc1	10.9	0.4	-41.9	3939	12.3	-0.6	0.3
O=C(N/N=C(\c1ccccc1)c1ccccn1)c1cccc([N+](=O)[O-])c1	x	x	28.8	4707	x	x	46.8
CCC(=O)c1ccc(OCC(O)CN2CCN(c3ccccn3)CC2)cc1 (stereo unspecified)	-0.7	-3.5	-20.0	2925	3.6	13.2	-6.6
COc1cc2c(cc1NC(=S)Nc1cccc3ccccc13)oc1ccccc12	11.5	5.2	-13.1	3039	-13.0	-4.1	-5.7
O=C(O)c1cccc2c1Cc1cc([N+](=O)[O-])ccc1-2	11.1	3.4	-20.3	3359	8.0	27.9	x
CCc1c(O)nc(SCC(=O)Nc2ccccc2)n(C(C)CC)c1=O (stereo unspecified)	1.1	-1.4	-34.3	9637	0.9	18.0	1.9
O=C(/C=C/c1ccccc1)N1CCN(c2c(Cl)cccc2[N+](=O)[O-])CC1	3.8	-1.3	-8.9	2445	6.7	-14.5	-3.5
CCOc1ccc2oc(C(=O)NCC3CCCO3)c(C)c2c1 (stereo unspecified)	-3.4	0.5	-47.4	5435	1.0	1.8	-18.4
O=C(CN1C(=O)C2C3C=CC(C3)C2C1=O)Nc1ccc(F)cc1 (stereo unspecified)	2.5	2.7	-22.1	2081	8.0	-3.2	-18.4
O=c1c2ccccc2cnn1Cc1n[nH]c(=S)n1-c1cc(Cl)cc(Cl)c1	9.9	4.5	-3.4	2041	7.0	5.5	-8.7
CCC1(c2ccc(F)cc2)NC(=O)N(CC(=O)Nc2ccc(N3CCCCC3)cc2)C1=O (stereo unspecified)	x	x	-26.5	u	x	x	0.0
Cc1ccc(N2CC(C(=O)N3CCc4ccccc4C3)CC2=O)cc1 (stereo unspecified)	4.5	6.0	-10.9	10358	7.0	4.0	4.9
CC(=NNC(=O)Cc1cccn1C)c1ccccc1	18.3	4.7	x	x	2.6	7.7	x
O=C1NC[C@@H](Cc2ccc(O)cc2)N(CCc2cccc(F)c2)C1=O	x	x	-18.1	3903	x	x	11.4
Cc1csc(=O)n1CC(=O)OCC(=O)c1c(N)n(C)c(=O)n(C)c1=O	9.5	-4.4	-15.0	5344	3.2	6.5	-7.0
CCOC(=O)c1c(-c2ccc(F)cc2)csc1/N=C/N(C)C	x	x	-2.8	3775	x	x	-0.2
CCOC(=O)C1CCN(C(c2cccs2)c2sc3nc(C)nn3c2O)CC1 (stereo unspecified)	0.9	11.8	-25.6	5460	-12.4	-4.2	6.7
C=CCc1cc(OC)ccc1OCCCCn1cncn1	12.1	8.5	-13.5	3126	3.7	4.4	-10.7
Cc1ccc(NC(=O)c2cc(S(=O)(=O)N3CCC4(CC3)OCCO4)ccc2F)cc1	-0.4	14.0	-14.4	22105*	-1.7	-5.3	6.4
Cn1c(=O)cc(OCCCC(=O)Nc2cccnc2)c2ccccc21	-4.8	1.5	14.8	23694*	-0.6	-1.5	-9.9
O=C(O)CNC(=O)c1ccc(Oc2c(F)c(F)c(Oc3ccc(C(=O)NCC(=O)O)cc3)c(F)c2F)cc1	-8.9	-3.3	-2.8	4119	-2.4	-4.3	-1.6
Cc1nn(-c2ccccc2)c2sc(C(=O)NC3CC3)cc12	5.6	10.8	-39.2	u	8.0	6.1	-4.5

# 2 entries from above, with values under each structure:
# Value order: Mtb hypoxia inh | Mtb hypoxia inh growth | PrP 5UTR inh | Autofluor counter | RN4220 kill | Sa ugtP lethal | BJeLR lethal
> O=C(O)c1cccc2c1Cc1cc([N+](=O)[O-])ccc1-2
  11.1 | 3.4 | -20.3 | 3359 | 8.0 | 27.9 | x
> CCc1c(O)nc(SCC(=O)Nc2ccccc2)n(C(C)CC)c1=O (stereo unspecified)
  1.1 | -1.4 | -34.3 | 9637 | 0.9 | 18.0 | 1.9

# Grouped by structure, those above containing an NH in an aromatic ring
Molecule	Mtb hypoxia inh	Mtb hypoxia inh growth	PrP 5UTR inh	Autofluor counter	RN4220 kill	Sa ugtP lethal	BJeLR lethal
CCOCCc1c(O)nc(SCC)[nH]c1=O	18.7	3.1	-9.5	4856	1.9	4.1	11.8
CCc1cccc2c(C(=O)COC(=O)[C@@H]3CC(O)CN3S(=O)(=O)c3ccccc3[N+](=O)[O-])c[nH]c12 (stereo partly specified)	-6.6	2.9	-0.8	3901	4.5	1.6	x
CCOC(=O)c1[nH]c(C)c(/C(O)=C2\C(=O)C(=O)N(CCN3CCOCC3)C2c2cccs2)c1C (stereo unspecified)	-0.4	4.2	-15.1	u	0.2	1.5	-1.2
CC[C@]12c3[nH]c4cc(-c5ccco5)ccc4c3CCN1C(=O)[C@@H](CC(=O)NCc1cccc(C(F)(F)F)c1)C[C@@H]2C(=O)N1CCN(C(=O)C2CC2)CC1	-8.8	11.2	-14.3	4078	-6.1	-10.6	x
Cc1nnc(SCc2cccs2)[nH]c1=O	x	x	-18.9	4500	-0.2	0.0	-5.8
COc1ccc(CCn2c(NN=C(C)C)nc3c2c(=O)[nH]c(=O)n3C)cc1	x	x	-13.4	2874	x	x	3.8
COc1ccc(-c2cc(-c3ccco3)[nH]c(=O)c2C#N)cc1OC	-1.2	1.2	3.7	u	7.9	4.3	-3.1
O=c1c2ccccc2cnn1Cc1n[nH]c(=S)n1-c1cc(Cl)cc(Cl)c1	9.9	4.5	-3.4	2041	7.0	5.5	-8.7

# Quoted from the listing:
# Mtb hypoxia inh, COc1cc2c(cc1NC(=S)Nc1cccc3ccccc13)oc1ccccc12 → 11.5
# PrP 5UTR inh, CCOc1ccc2oc(C(=O)NCC3CCCO3)c(C)c2c1 (stereo unspecified) → -47.4

# Compounds as they come. About 4% of those tested had a hit in this group.
